Screening data: PubChem BioAssay, several laboratories
PrP 5UTR inh – inhibition of PrP 5' UTR reporter expression; inhibition, % (no concentration beside the values); cell-based PrP 5' UTR mRNA reporter, plate reader; AID 488862; 340,000 compounds, 0.35% hits;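 active = every replicate at 50% or more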;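 also: 0 = median of the neutral control wells; tested in H4 reporter cells; numbers are from one replicate; inactives centre near -14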
Sa RN4220 lethal – kills Staphylococcus aureus RN4220. 330,000 compounds, 0.33% hits. S. aureus RN4220 growth, OD600, 16 h. inhibition, % (test concentration not listed);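 active = z-score of -3 or lower and OD600 up to 0.18 on both plates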;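 also: plate controls were untreated cells for no effect and reference antibiotic for full effect; stock transfer was 100 nL into about 80 µL; one replicate is shown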
BJeLR lethal – kills HRASV12-expressing BJeLR cells. inhibition, % (concentration not given with the values). BJeLR (HRASV12) viability, CellTiter-Glo ATP luminescence, 48 h; reference of the scale not given here. 300,000 compounds, 0.17% hits;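 active = replicate mean above 50%; inconclusive = above 50% but judged a plate artefact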;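 also: 50 nL library stock added to about 25 µL; numbers are from one replicate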
ugtP null kill – kills S. aureus RN4220 lacking UgtP; S. aureus RN4220 ugtP deletion, OD600 growth, 16 h; some inactives read as strong as hits; growth inhibition, % (concentration not given with the values); 330,000 compounds, 0.54% hits;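 active = z-score under -3 and OD600 up to 0.15 on both plates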;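 also: plate controls were untreated wells for no effect and antibiotic for full effect; wells of about 80 µL received 100 nL stock; the first replicate is given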
Bead autofluor – compound fluorescence in toxin protease inhibitor counterscreen; compound autofluorescence counterscreen, microsphere flow cytometry; active compounds read high; fluorescence intensity (no concentration beside the values); 360,000 compounds, 3.1% hits;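 active = at least 3 SD above the mean of all compounds, about 16000 in these data; inconclusive = too few beads counted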;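 also: 100 nL of 1 mM stock went into each well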
Mtb hypoxia rep – Mtb hypoxia fluorescent reporter inhibition; AID 1159583; 300,000 compounds, 0.1% hits; M. tuberculosis hypoxia-regulated fluorescent reporter, fluorescence; fluorescence inhibition, % (concentration not given with the values);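 active = 35 to 45% if threefold the growth effect, above 45% if 1.5-fold the growth effect; inactive = the rest, general growth blockers included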;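 also: wells of about 50 µL received 100 nL stock; 0% = vehicle wells and 100% = reference inhibitor wells; whole bacteria with a GFP reporter of the hypoxia response; strong numbers were not always called active; many hits fall short of the cut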
Mtb hypoxia rep growth – further read-out of Mtb hypoxia rep, marked with its call; growth inhibition, %; measured here: M. tuberculosis growth (absorbance);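 0% = vehicle and 100% = reference antibiotic; read after six days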
Active calls of the source: *; & = joins results of further samples.

What do the screens show for `COc1ccccc1OCC(=O)Nc1sc2c(c1C(=O)NCC1CCCO1)CCC2` (stereo not drawn)?
PrP 5UTR inh: 2; Sa RN4220 lethal: 1.8; BJeLR lethal: -6; ugtP null kill: -17; Bead autofluor: 8070; Mtb hypoxia rep: 8; Mtb hypoxia rep growth: 9

How did Cc1cc(C(=O)CN2C(=O)C(=O)N(CC(C)C)C2=O)c(C)n1C1CC1 do in these assays?
PrP 5UTR inh: -39; Sa RN4220 lethal: 0.5; ugtP null kill: 1; Bead autofluor: 4034; Mtb hypoxia rep: 8; Mtb hypoxia rep growth: 2

What do the screens show for `CCN(CC(=O)Nc1ccc(NC(C)=O)cc1)C(=O)/C=C/c1cn(Cc2ccccc2)nc1-c1cccnc1`?
PrP 5UTR inh: -8; Sa RN4220 lethal: 0.6; BJeLR lethal: -6; ugtP null kill: 3; Bead autofluor: 5997; Mtb hypoxia rep: 6; Mtb hypoxia rep growth: 9

How did O=C(NC12CC3CC(CC(C3)C1)C2)c1cccnc1 do in these assays?
PrP 5UTR inh: -20; Sa RN4220 lethal: 4.9; BJeLR lethal: -2; ugtP null kill: 8; Bead autofluor: 10972; Mtb hypoxia rep: 10; Mtb hypoxia rep growth: 1

What do the screens show for `Cc1cc(C)n(C(=O)CNc2ccccc2Cl)n1`?
PrP 5UTR inh: -4; Sa RN4220 lethal: 8.6; BJeLR lethal: 5; ugtP null kill: 4; Bead autofluor: 3215; Mtb hypoxia rep: -3; Mtb hypoxia rep growth: -3

Results for Cc1cccc(CC(=O)N2CCC(n3nccc3NC(=O)C3CC3)CC2)c1 ?
PrP 5UTR inh: 7; Sa RN4220 lethal: 3.7; BJeLR lethal: -7; ugtP null kill: 7; Bead autofluor: 4685; Mtb hypoxia rep: 6; Mtb hypoxia rep growth: 7

How did O=C(c1cc(Cl)c(=O)n(Cc2ccc(Cl)cc2)c1)N1CCOCC1 do in these assays?
PrP 5UTR inh: -13; Sa RN4220 lethal: 1.2; BJeLR lethal: -11; ugtP null kill: 2; Bead autofluor: inconclusive; Mtb hypoxia rep: -6; Mtb hypoxia rep growth: -2

Results for COc1ccc(/C=C/C(=O)NC(=S)Nc2ccc(N3CCN(C(C)=O)CC3)cc2)cc1 ?
PrP 5UTR inh: -4; Sa RN4220 lethal: 1.4; BJeLR lethal: 1; ugtP null kill: -2; Bead autofluor: 3721; Mtb hypoxia rep: 0; Mtb hypoxia rep growth: 7

What do the screens show for `Cc1ccc(CN2C(=O)[C@H]3Cc4c([nH]c5ccccc45)C(C)(C)N3C2=O)cc1`?
PrP 5UTR inh: -16; BJeLR lethal: -1; Bead autofluor: 3842

Results for Cc1c(Br)c([N+](=O)[O-])nn1CC(=O)NCCc1c[nH]c2ccccc12 ?
PrP 5UTR inh: 0; Sa RN4220 lethal: 15; BJeLR lethal: 5; ugtP null kill: 2; Bead autofluor: 4128; Mtb hypoxia rep: 11; Mtb hypoxia rep growth: 10

What do the screens show for `O=C(NN=Cc1ccco1)c1cc(-c2ccc(Br)s2)[nH]n1`?
Sa RN4220 lethal: 0.9; ugtP null kill: -7; Mtb hypoxia rep: 7; Mtb hypoxia rep growth: 7

How did Cc1nc2cc(C(=O)OCC(=O)N(CC(C)C)C3CCS(=O)(=O)C3)ccc2n1-c1ccccc1 (stereo not drawn) do in these assays?
PrP 5UTR inh: -13; Sa RN4220 lethal: 1.8; BJeLR lethal: -11; ugtP null kill: -1; Bead autofluor: 3918; Mtb hypoxia rep: 10; Mtb hypoxia rep growth: 27

What do the screens show for `CCn1c(SC)nnc1-c1c[nH]c2ccccc12`?
PrP 5UTR inh: -4; Sa RN4220 lethal: -8.4; BJeLR lethal: -1; ugtP null kill: -7; Bead autofluor: 6531; Mtb hypoxia rep: 3; Mtb hypoxia rep growth: 2

What do the screens show for `C=C(C)CNc1cc(S(=O)(=O)N2CCOCC2)ccc1Oc1ccccc1`?
PrP 5UTR inh: -14; Sa RN4220 lethal: 13; ugtP null kill: 0; Bead autofluor: 9037; Mtb hypoxia rep: 11; Mtb hypoxia rep growth: 3

What do the screens show for `CCOc1cc(C(=S)N2CCOCC2)ccc1OC(=O)/C=C/c1ccc(OC)c(OC)c1`?
PrP 5UTR inh: -14; Sa RN4220 lethal: 1.3; BJeLR lethal: -14; ugtP null kill: -9; Bead autofluor: 6575; Mtb hypoxia rep: 2; Mtb hypoxia rep growth: 4

Results for O=C(c1cc([N+](=O)[O-])ccc1N1CCCCC1)N1CCCCC1 ?
PrP 5UTR inh: -17; Sa RN4220 lethal: -0.3; BJeLR lethal: 3; ugtP null kill: -2; Bead autofluor: 11116; Mtb hypoxia rep: -3; Mtb hypoxia rep growth: 10

How did COc1ccccc1NC(=O)c1oc2ccccc2c1NC(=O)c1cc(OC)c(OC)c(OC)c1 do in these assays?
PrP 5UTR inh: 56*; Sa RN4220 lethal: 4.8; BJeLR lethal: 21; ugtP null kill: -8; Bead autofluor: 11217; Mtb hypoxia rep: -2; Mtb hypoxia rep growth: -2

How did CCCn1c(N)c(N(CCOC)C(=O)c2ccc([N+](=O)[O-])c(C)c2)c(=O)[nH]c1=O do in these assays?
PrP 5UTR inh: -12; Sa RN4220 lethal: 3.6; BJeLR lethal: -5; ugtP null kill: 9; Bead autofluor: 3097; Mtb hypoxia rep: 0; Mtb hypoxia rep growth: -16

What do the screens show for `Cc1nn(C)c(Cl)c1/C=N/OC(=O)c1ccccc1`?
PrP 5UTR inh: -22; BJeLR lethal: 3; Bead autofluor: 4357

Results for COc1ccc(C2C(C#N)=C(N)OC3=C2C(=O)CC(C)(C)C3)cc1OC (stereo not drawn) ?
PrP 5UTR inh: -15; Sa RN4220 lethal: 2.3; BJeLR lethal: -1; ugtP null kill: 6; Bead autofluor: 4778; Mtb hypoxia rep: 6; Mtb hypoxia rep growth: -1

How did O=C1CC(c2cccc(Cl)c2)Cc2nc(N3CCN(c4ccccc4)CC3)ncc21 (stereo not drawn) do in these assays?
PrP 5UTR inh: 0; Sa RN4220 lethal: 1.1; BJeLR lethal: 3; ugtP null kill: 1; Bead autofluor: 5379

What do the screens show for `Cc1nccc2[nH]c(=O)c(C(=O)NC3CCCCC3C)cc12` (stereo not drawn)?
PrP 5UTR inh: -20; Sa RN4220 lethal: -2.8; BJeLR lethal: -1; ugtP null kill: 5; Bead autofluor: 2469; Mtb hypoxia rep: 15; Mtb hypoxia rep growth: 4

What do the screens show for `CCN1CCN(c2ccc(NC(=O)c3ccc(C#N)cc3F)cc2Cl)CC1`?
PrP 5UTR inh: -20; Sa RN4220 lethal: 2.7; BJeLR lethal: 1; ugtP null kill: 2; Bead autofluor: 4415; Mtb hypoxia rep: 6; Mtb hypoxia rep growth: 5

Results for O=C(NCc1ccccn1)c1nc(Cn2cc([N+](=O)[O-])cn2)no1 ?
PrP 5UTR inh: -16; Sa RN4220 lethal: -0.1; BJeLR lethal: -2; ugtP null kill: 7; Bead autofluor: 3061; Mtb hypoxia rep: 0; Mtb hypoxia rep growth: -6

Results for CCN(CC(=O)NCc1ccc(F)cc1)C(=O)c1ccc2c(c1)OCO2 ?
PrP 5UTR inh: -19; Sa RN4220 lethal: 1.7; ugtP null kill: 11; Bead autofluor: 6043; Mtb hypoxia rep: 8; Mtb hypoxia rep growth: 3

How did Cc1cccc(C)c1NC(=O)c1cccc2c1-c1ccccc1C2=O do in these assays?
PrP 5UTR inh: -16; Sa RN4220 lethal: 8.7; BJeLR lethal: 0; ugtP null kill: 3; Bead autofluor: 6676; Mtb hypoxia rep: 8; Mtb hypoxia rep growth: 2

What do the screens show for `COCCNC(=O)C(c1ccc(Cl)cc1)N(C(=O)CCC(=O)Nc1ccccn1)C1CCCC1` (stereo not drawn)?
PrP 5UTR inh: 6; Sa RN4220 lethal: -2.8; BJeLR lethal: 3; ugtP null kill: 2; Bead autofluor: 3522

How did CC(C)N1C(=O)c2ccc(C(=O)O)cc2C1=O do in these assays?
PrP 5UTR inh: -23; Sa RN4220 lethal: 1.1; BJeLR lethal: 5; ugtP null kill: -4; Bead autofluor: 2397

What do the screens show for `CC(C)N(Cc1nc(-c2ccc(Cl)cc2)no1)C(=O)CN(C)S(=O)(=O)c1ccc(Cl)cc1`?
PrP 5UTR inh: -24; Sa RN4220 lethal: 3.3; BJeLR lethal: 6; ugtP null kill: -3; Bead autofluor: 11635; Mtb hypoxia rep: 5; Mtb hypoxia rep growth: 6

What do the screens show for `CCN(CC)Cc1cc(Nc2ccnc3cc(Cl)ccc23)ccc1O`?
PrP 5UTR inh: 13&1; Sa RN4220 lethal: 2.8&3.1; BJeLR lethal: 3&-5; ugtP null kill: -9&-13; Bead autofluor: 4630&6226; Mtb hypoxia rep: 8&9; Mtb hypoxia rep growth: 12&3

How did Cc1ccnc(N2CCN(C(=O)CSc3nc4ccccc4nc3N3CCC(C)CC3)CC2)c1 do in these assays?
PrP 5UTR inh: 1; Sa RN4220 lethal: -1.6; BJeLR lethal: -3; ugtP null kill: -8; Bead autofluor: 4332; Mtb hypoxia rep: -1; Mtb hypoxia rep growth: -6

Results for C=C1CCN(C(C)C(=O)NCc2cc(OC)c(OC)c(OC)c2)S(=O)(=O)c2ccccc21 (stereo not drawn) ?
Sa RN4220 lethal: -2.2; ugtP null kill: -2; Mtb hypoxia rep: -1; Mtb hypoxia rep growth: 11

Results for C[C@@H](C(=O)Nc1ccc2c(c1)OCCO2)n1c(=O)[nH]c2ccccc2c1=O ?
PrP 5UTR inh: 34; Sa RN4220 lethal: 0.6; BJeLR lethal: -3; ugtP null kill: -1; Bead autofluor: 5955; Mtb hypoxia rep: 4; Mtb hypoxia rep growth: -1

What do the screens show for `O=C(CCNS(=O)(=O)c1ccccc1)NCCSc1ccc(Br)cc1`?
PrP 5UTR inh: -28; Sa RN4220 lethal: 0.1; ugtP null kill: 3; Bead autofluor: 2672; Mtb hypoxia rep: 12; Mtb hypoxia rep growth: -2

What do the screens show for `CCc1nc2ccccc2c(C(=O)Nc2cc(C)ccc2C)c1C`?
PrP 5UTR inh: -22; Sa RN4220 lethal: 10; BJeLR lethal: -3; ugtP null kill: 12; Bead autofluor: 4140; Mtb hypoxia rep: 7; Mtb hypoxia rep growth: 2

What do the screens show for `Cc1ccc(Nc2nnc(SCC(=O)NC3CCS(=O)(=O)C3)s2)c(C)c1` (stereo not drawn)?
PrP 5UTR inh: -2; Sa RN4220 lethal: 5.5; BJeLR lethal: 12; ugtP null kill: 4; Bead autofluor: 3006; Mtb hypoxia rep: -7; Mtb hypoxia rep growth: 2

How did N#CC(CCN1CCOCC1)(c1ccccc1)c1ccccc1 do in these assays?
PrP 5UTR inh: -6; Sa RN4220 lethal: 2.8; BJeLR lethal: -2; ugtP null kill: 0; Bead autofluor: 4199; Mtb hypoxia rep: 18; Mtb hypoxia rep growth: -4

How did COC(=O)c1ccc(NC(c2ccc(Cl)cc2)P(=O)(OC)OC)cc1 (stereo not drawn) do in these assays?
PrP 5UTR inh: -10; Sa RN4220 lethal: 1.0; BJeLR lethal: 11; ugtP null kill: 5; Bead autofluor: 2045; Mtb hypoxia rep: 7; Mtb hypoxia rep growth: 7

Results for O=C(NN=Cc1cc([N+](=O)[O-])ccc1O)C12CC3CC(CC(C3)C1)C2 ?
Sa RN4220 lethal: 63; ugtP null kill: 34; Mtb hypoxia rep: -1; Mtb hypoxia rep growth: -1

What do the screens show for `O=C(/C=C/c1cccs1)Nc1cccnc1`?
PrP 5UTR inh: -75; Sa RN4220 lethal: 2.9; BJeLR lethal: 6; ugtP null kill: -3; Bead autofluor: 2116; Mtb hypoxia rep: -5; Mtb hypoxia rep growth: -1

Results for O=c1[nH]c(N/N=C/c2ccccc2)nc2ccccc12 ?
PrP 5UTR inh: -120; BJeLR lethal: 1; Bead autofluor: 16682*

How did O=C(Nc1ccccc1)C1=C(N2CCOCC2)/C(=C/c2cccnc2)CC1 do in these assays?
PrP 5UTR inh: -26; Sa RN4220 lethal: -4.1; BJeLR lethal: -3; ugtP null kill: -7; Bead autofluor: 5130; Mtb hypoxia rep: 1; Mtb hypoxia rep growth: 10

Hits appear at their usual frequency. About 4% of those tested had a hit in this group.
